PINK1 modulator: A Quantitative High throughput Screen to Identify Chemical Modulators of PINK1 Expression. PINK1 immunofluorescence, high-content cytometry, 24 h. Potency, µM (titrated, usually from 76.6 µM), for the others: at the top dose activation (PINK1 increase), hits mostly activators. actives 0.2% (n = 410,000); active = well fitted activation curve with a large enough effect; inconclusive = small, poorly fitted or top-dose-only effect; inactive = flat fitted curve, though single readings scatter; cell line not stated here;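 note: potency is the fitted concentration of half-maximal effect; % of control where 0% means no effect; nearly all actives have a fitted effect of over 65% in size; a mitochondrial uncoupler was the plate control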
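Stable cell line treated 24 h with compounds at 5 concentrations (CCCP controls), then fixed and immunostained for PINK1 plus nuclear and cell stains; PINK1 immunofluorescence quantified by laser-scanning microplate cytometry.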
gsp agonist: qHTS for Agonist of gsp, the Etiologic Mutation Responsible for Fibrous Dysplasia/McCune-Albright Syndrome: qHTS | gsp mutant cells, cAMP HTRF, 30 min; control for the full effect not named in the record | Potency, µM (titrated, usually from 76.9 µM), without a hit: at the highest dose activation (cAMP increase), actives largely listed as activators | actives 0.13% (n = 340,000) | AID 624287, 2012; active = well fitted activation curve with a large enough effect; inconclusive = small, poorly fitted or top-dose-only effect, or another doubt; inactive = no such curve, though single readings can be large or run the other way; cell line not stated here;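 note: phosphodiesterase inhibitor Ro 20-1724 added with compounds to block cAMP breakdown; potency is the fitted concentration of half-maximal effect; nearly all actives have a fitted effect of over 60% in size; about a fifth of the inactives were tested at one dose only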
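Cells in DMEM/10% FBS with G418 were pretreated with compounds in DMSO plus […] (300 uM stock) for 30 min at 37C. cAMP was measured by HTRF (cAMP-d2 plus anti-cAMP antibody-K) after 30 min at room temperature.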
ClpP mod: qHTS Assay for Activators of ClpP; purified B. subtilis ClpP, FRET peptide cleavage, 20 min; Potency, µM (doses to about 57.5 µM), for the others: top-dose activity change, negative = active; actives 1.9% (n = 340,000); AID 651965, 2013; active = well fitted falling curve with a large enough effect; inconclusive = small, poorly fitted or top-dose-only effect; inactive = no such curve, though single readings can be large or run the other way; note: potency is the fitted concentration of half-maximal effect; the source files actives as falling curves though it sought activators and does not explain the sign; nearly all actives have a fitted effect of over 65% in size; many hits overshoot -100%
Target sequence (P80244 whole entry, looked up): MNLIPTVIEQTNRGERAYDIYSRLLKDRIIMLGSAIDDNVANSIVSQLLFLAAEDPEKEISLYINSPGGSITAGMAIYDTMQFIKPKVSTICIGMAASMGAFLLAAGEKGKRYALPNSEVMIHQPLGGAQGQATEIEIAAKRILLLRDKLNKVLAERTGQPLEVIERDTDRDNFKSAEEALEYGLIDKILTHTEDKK
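Buffer: 100 mM Tris/HCl pH8, 100 mM KCl, 0.05% low protease BSA, 2.5% glycerol, 0.01% Tween-20. ClpP 10 microg/mL final; 20 min RT; delta FRET normalized to ADEP and DMSO controls.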
Menin-MLL FL inh: qHTS Assay for Inhibitors Targeting the Menin-MLL Interaction in MLL Related Leukemias: Competition With Fluorescein Labeled MLL-derived Peptide; Fluorescence polarization, fluorescein-MLL peptide displacement from menin; 290,000 tested, under 10 active; FP activity change, % at 61.4 µM; inconclusive = falling polarisation curve, or a change in total fluorescence; inactive = total fluorescence flat and polarisation flat or rising; no compound was filed as active; the % refers to the polarisation; negative = inhibition;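 note: % of control where 0% means no effect; inhibitors lower the polarisation; unlabelled MLL peptide was the positive control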
gsp antagonist: qHTS for Antagonists of gsp, the Etiologic Mutation Responsible for Fibrous Dysplasia/McCune-Albright Syndrome: qHTS | actives 0.4% (n = 340,000) | gsp-mutant cells, cAMP HTRF, 30 min; control for the full effect not named in the record | Potency, µM (series often up to 76.9 µM), without a hit: at the highest dose activity change, negative = inhibition, actives largely listed as inhibitors | AID 624288, 2012; active = falling curve of any shape with a large fitted effect; inconclusive = falling curve, mostly with a smaller effect; inactive = flat or rising curve; cell line not stated here;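 note: intracellular cAMP measured with PDE inhibitor Ro 20-1724 present during compound exposure; potency is the fitted concentration of half-maximal effect; % is set by controls: 0 for no effect and ±100 for the full control effect; nearly all actives have a fitted effect of over 65% in size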
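Cells, 2000/well, grown 16–24 h in DMEM 10% FBS with 0.5 mg/ml G418, then compounds plus […] (300 uM addition stock), 30 min at 37C. cAMP read by HTRF (cAMP-d2 and anti-cAMP antibody-K in lysis buffer) after 30 min RT.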
Sfp inh: qHTS Assay for Inhibitors of Bacillus subtilis Sfp phosphopantetheinyl transferase (PPTase). Biochemical Sfp PPTase activity, qHTS. Potency, µM, for inactives: max response, negative = inhibition, most hits filed as inhibitors. actives 3.5% (n = 310,000); active = well fitted inhibition curve with a large enough effect; inconclusive = small, poorly fitted or top-dose-only effect, or another doubt; inactive = no such curve, though single readings can be large or run the other way;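 note: the enzyme is Sfp with the accession as filed and its product quenches rhodamine fluorescence; potency is the fitted concentration of half-maximal effect; 0% = enzyme reaction without inhibitor and -100% = no enzyme wells; top concentration of the series not given in the record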
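Reaction rates are the 30-min fluorescence difference (ex 525, em 598 nm) in wells containing 15 nM Sfp, 5 uM rhodamine-CoA and 12.5 uM BHQ-2-YbbR at pH 7.6 with 10 mM MgCl2.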
D2 agonist: Beta-Arrestin HTS for Positive Allosteric Modulators of the Human D2 Dopamine Receptor: Agonists; DiscoveRx PathHunter D2 beta-arrestin, luminescence, 90 min; 100% = 57 uM dopamine signal; activation, % (concentration not given with the values); actives 0.084% (n = 360,000); AID 624465, 2012; in the data active = activation above about 40%; inconclusive = about 15% to 40%; inactive = below about 15%; note: compound concentration not given in the record; the text of the record calls up to 30% inactive
Target sequence (P14416 whole entry, looked up): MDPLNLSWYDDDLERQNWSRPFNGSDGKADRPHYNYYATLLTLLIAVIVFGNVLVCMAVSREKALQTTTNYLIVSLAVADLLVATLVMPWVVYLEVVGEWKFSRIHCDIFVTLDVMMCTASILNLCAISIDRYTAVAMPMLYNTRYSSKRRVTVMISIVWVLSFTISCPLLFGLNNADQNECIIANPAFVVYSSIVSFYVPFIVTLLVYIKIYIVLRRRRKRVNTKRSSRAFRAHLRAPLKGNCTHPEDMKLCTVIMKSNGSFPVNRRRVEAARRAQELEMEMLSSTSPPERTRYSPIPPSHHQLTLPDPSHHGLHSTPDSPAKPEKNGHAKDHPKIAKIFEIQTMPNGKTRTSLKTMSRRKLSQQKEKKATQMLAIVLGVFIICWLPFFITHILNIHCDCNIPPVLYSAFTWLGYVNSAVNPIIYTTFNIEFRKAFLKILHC
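Agonist mode: compounds alone added to overnight-plated D2 PathHunter cells for 90 min at 37 C, with 57 uM final dopamine (EC100) defining full response. Beta-arrestin recruitment detected by chemiluminescent reagent, read after 1 h at ambient temperature.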
The depositor's hits bear a star; ? = inconclusive; / = no result given; & = joins results of further samples; [ ] = dose if it differs, or a comment.

SMILES	PINK1 modulator	gsp agonist	ClpP mod	Menin-MLL FL inh	gsp antagonist	Sfp inh	D2 agonist
O=C(COC(=O)COc1cccc(F)c1)NCCC1=CCCCC1	1.0%	-2%	/	-3.3	-4%	6%	3.0
CC1CC(C)CN(C(=O)CSc2nc(Cc3cccs3)nc3ccccc23)C1 (stereo not drawn)	1.1%[38.3 µM]	25%	-2.3%	-2.8	-15%	-15%	-2.7
CCn1c(SCC(=O)N2CCCCC2)nc2c(c1=O)SCC2	1.0%	4%	-1.3%	1.8	-21%	3%	0.3
C=CCOc1ccc(/C(O)=C2\C(=O)C(=O)N(CCCOC)C2c2ccncc2)cc1 (stereo not drawn)	-1.8%	38%	-1.9%	0.1	14%	3%	-1.4
CCCOC(=O)c1ccc(NC(=O)C(=O)NCC2CCCO2)cc1 (stereo not drawn)	-0.7%	-15%	-2.2%	2.3	-1%	19%	-0.8
COc1ccc(/C=N/NC(=O)c2cc(C)oc2C)cc1OCc1ccccc1	1.3%	7%	/	2.4	13µM*	-7%	-1.2
COc1ccc(N2CCN(C(=O)c3[nH]c(C(F)(F)F)nc3-c3ccccc3)CC2)cc1	4.7%	/	-10%	/	/	/	-2.6
CC(C)(C)C(=O)N=C1SC2CS(=O)(=O)CC2N1c1ccc2c(c1)OCO2 (stereo not drawn)	18%[38.3 µM]	0%	-0.8%	9.7	7%	12%	-0.2
COC(=O)Cn1cnc2c(C#N)c3n(c2c1=O)CCCC3	4.1%[38.3 µM]	?	1.0%	0.0	42%[activator]	6%	-2.4
O=C(NCc1ccccc1)C1CC(=O)N(C2CCCCCC2)C1 (stereo not drawn)	-1.8%	-6%[15.4 µM]	/	-0.7	9%	16%	0.7
Cc1nnc(SCC(=O)N2CCc3ccccc32)n1-c1ccccc1	-1.5%	14%	1.9%	1.0	14%	-10%	-3.5
C/C(=N\NC(=O)c1ccc(CSc2nc(C)cc(C)n2)cc1)C1CCCCC1	-0.7%	0%	1.4%	7.5	8%	-1%	2.3
O=C(c1ccc(F)cc1)N1CCC(n2nnc3ccccc32)CC1	0.5%	-26%[15.4 µM]	/	0.8	0%	-2%	-6.4
O=C(NC1CCCc2ccccc21)c1ccc(F)cc1F (stereo not drawn)	11%	-15%[15.4 µM]	/	-5.5	14%	2%	-0.5
CN(CC(=O)Nc1ccc(C#N)cc1)Cc1ccc(Cl)c(Cl)c1	-0.2%	0%	-2.8%	2.7	-8%	14%	-0.8
O=C(Nc1ccc(N2CCOCC2)cc1)c1cccc2ccccc12	9.3%	-23%	/	3.1	-8%	11%	-5.5
COn1c(C)c(C(C)=O)c2c3no[n+]([O-])c3ccc21	-1.8%	0%	-3.2%	1.9	-7%[15.4 µM]	22%	-2.7
COc1ccc2[nH]c(=O)c(NC(N)=S)nc2c1	0.4%[38.3 µM]	-1%	-4.2%	-3.0	8%	35µM*	-4.8
COc1ccc(NC(=O)C(=S)N2CCCC2)cc1	1.5%	-2%[15.4 µM]	-1.0%	2.5	8%	17%	1.2
O=C(c1cccs1)N1C[C@@H](n2cc(C3CC3)nn2)[C@H](O)C[C@@H]1c1ccccc1	-0.2%	57%	-0.5%	/	/	/	-11
CN(CC(=O)Nc1ccc(Cl)cc1)C(=O)CNC(=O)Cc1cccc2ccccc12	-0.1%	-20%	-2.6%	/	-5%	/	-3.3
CCOC(=O)c1c(-c2ccc(C)o2)csc1NC(=O)COC(=O)c1cccs1	-0.5%	3%	-26%	2.7	-17%	10µM*	-4.2
Cc1ccc(C(=O)OC2=CC(=O)CC(C)(C)C2)cc1	1.5%	-13%	0.3%	-4.1	10%	-29%	-0.8
CNc1nc(Nc2ccc(C)c(Cl)c2)nc(N)c1[N+](=O)[O-]	-1.9%	-11%	1.7%	3.6	20%	6%	-4.7
O=C(NCCCN1CCCCC1)c1ccc2c(c1)ncn2C1CCCC1	0.7%	-16%	-2.1%	/	-2%	3%	-4.1
CCCCC(=O)NCc1ccc(Cl)cc1	2.0%	7%	20µM*	7.3	21%	11%	-0.4
C[C@@H]1CN([C@H](C)CO)C(=O)CCCn2nncc2CO[C@H]1CN(C)C(=O)c1ccc2ccn(C)c2c1	-0.7%	-51%[inhibitor]	?	/	/	/	-0.4
Cc1nn(C)c(C(=O)N2CCc3ccccc32)c1Br	8.6%	-19%	-30%	-6.2	-2%	14%	0.0
Cc1cccc(NC(=O)CN2CCCCCC2)c1	5.2%	21%	/	0.1	5%	-23%	-2.6
CC(=O)c1c(C(C)=O)c(C)n(-c2ccc(O)cc2)c1C	1.1%[38.3 µM]	-28%	1.3%	1.0	-2%	11%	-1.1
O=C(Nc1ccccc1O)c1ccc(NS(=O)(=O)c2cccc3cccnc23)cc1	6.3%	4%	0.2%	4.7	-21%	-6%	9.0
CC(=O)Nc1ccc(S(=O)(=O)NCCC(=O)OCC(=O)N2CCN(C(=O)c3ccco3)CC2)cc1	-0.7%	14%	1.2%	/	2%	13%	-1.7
COc1ccc(NC(=O)c2cnc3n(c2=O)CCS3)cc1OC	-0.4%	?	-1.0%	-0.1	4%	8%	-4.1
Cc1cc(C)c2c(N)c(C(=O)C(C)(C)C)sc2n1	0.4%	-7%[15.4 µM]	/	3.8	10%	15%	0.9
CCC1CCc2sc(C(=O)O)cc2C1 (stereo not drawn)	-0.2%	-37%	-1.7%	2.2	2%	14%	-0.9
CCN(CC)C(=O)C1=C(C)N(Cc2ccc(OC)cc2)C(=O)C(CC(=O)NC(c2ccccc2)c2ccccc2)C1 (stereo not drawn)	-0.2%	2%	1.4%	/	/	/	0.3
COc1ccc(Oc2nccc(-c3ccc(Cl)cc3)n2)cc1	0.7%	0%	-6.0%	1.2	41%[activator]	?	2.3
COCCNC(=O)c1nn2c(C(F)(F)F)cc(-c3ccccc3)nc2c1Cl	13%	-4%	2.3%	3.7	4%	19%	-4.3
COc1cccc(C2c3[nH]c4ccccc4c3CCN2C(=O)Cn2cncn2)c1OC (stereo not drawn)	-0.8%	-19%	/	1.4	-10%	-7%	-4.0
Cc1cc(S(=O)(=O)NCC(c2ccccc2)c2ccccc2)ccc1-n1cnnn1	-5.6%[38.3 µM]	11%	-3.7%	6.0	-9%	17%	0.7

An excerpt from above in order of heavy-atom count, largest number first:
SMILES	PINK1 modulator	gsp agonist	ClpP mod	Menin-MLL FL inh	gsp antagonist	Sfp inh	D2 agonist
O=C(Nc1ccccc1O)c1ccc(NS(=O)(=O)c2cccc3cccnc23)cc1	6.3%	4%	0.2%	4.7	-21%	-6%	9.0
COc1ccc(Oc2nccc(-c3ccc(Cl)cc3)n2)cc1	0.7%	0%	-6.0%	1.2	41%[activator]	?	2.3
CNc1nc(Nc2ccc(C)c(Cl)c2)nc(N)c1[N+](=O)[O-]	-1.9%	-11%	1.7%	3.6	20%	6%	-4.7
CC(=O)c1c(C(C)=O)c(C)n(-c2ccc(O)cc2)c1C	1.1%[38.3 µM]	-28%	1.3%	1.0	-2%	11%	-1.1

Rewritten as comma-separated lines: part of the list above
SMILES,PINK1 modulator,gsp agonist,ClpP mod,Menin-MLL FL inh,gsp antagonist,Sfp inh,D2 agonist
COc1cccc(C2c3[nH]c4ccccc4c3CCN2C(=O)Cn2cncn2)c1OC (stereo not drawn),-0.8%,-19%,/,1.4,-10%,-7%,-4.0
Cc1cc(S(=O)(=O)NCC(c2ccccc2)c2ccccc2)ccc1-n1cnnn1,-5.6%[38.3 µM],11%,-3.7%,6.0,-9%,17%,0.7

Next compounds follow:
SMILES	PINK1 modulator	gsp agonist	ClpP mod	Menin-MLL FL inh	gsp antagonist	Sfp inh	D2 agonist
COc1ccc(C2NC(=O)C(C#N)=C(S)N2c2ccc(C)cc2)cc1OC (stereo not drawn)	-0.5%	-5%	-3.0%	-7.3	-3%	32µM*	-2.1
Cn1c(Cc2csc(N)n2)nnc1SCC(=O)NCc1ccccc1	/	-3%	2.4%	-3.5	5%	?	-1.9
CC(=O)NNC(=O)CCn1c2c(c3ccccc31)CCCC2	-0.1%	21%[15.4 µM]	/	3.7	7%	6%	-2.6
CN(C)CCC1(c2ccccc2)CCN(C)C1=O (stereo not drawn)	0.8%	5%	-0.1%	/	/	/	-4.2
CC1CC(C)CN(C(=O)CSc2nnc(N)s2)C1 (stereo not drawn)	1.6%	4%	-1.9%	4.2	4%	10%	-3.2
O=C(O)CCCCNS(=O)(=O)c1ccc(Cl)c(C(F)(F)F)c1	-1.0%	-22%	0.7%	0.5	-6%	14%	-3.2
Cc1csc2nc(CSc3nncn3-c3ccccc3)c(Br)n12	0.0%	32%	336%	5.8	12%	13%	-3.3
Cc1noc(C)c1NC(=O)N(C)C[C@H]1Oc2c(NC(=O)c3ccncc3)cccc2C(=O)N([C@H](C)CO)C[C@@H]1C	0.3%	?	-8.6%	/	-4%	/	-1.3
COc1ccc(/C=C/CN2CCCC(CO)(Cc3cccc(Cl)c3)C2)cc1 (stereo not drawn)	8.8%	?	0.0%	-1.3	2%	0%	-7.8
Cc1ccc(NC(=O)Cn2nc(C(=O)Nc3ccc(C)cc3)ccc2=O)cc1	-0.3%&0.8%	8%	0.0%&0.7%	0.4	4%	25%	3.1
O=C(Nc1ccc(S(=O)(=O)N2CCOCC2)cc1)c1c(F)cccc1F	1.1%	-7%	/	5.8	4%	-28%	-1.0
COC(=O)CCC(=O)NNC(=O)Cc1ccccc1	-0.3%	-16%[15.4 µM]	/	2.6	8%	10%	-5.3
CN(CC(=O)Nc1ccccc1Cl)C(=O)COC(=O)CCN1C(=O)C2CC=CCC2C1=O (stereo not drawn)	0.5%	-33%[inhibitor]	-7.3%	/	-19%	/	-2.5
COC(=O)C1=CN(C2CCCCC2)C=C(C(=O)OC)C1c1ccc2c(c1)OCO2	0.3%	1%	3.8%	-5.2	15%	12%	-3.5

High-throughput results deposited in PubChem by National Center for Advancing Translational Sciences (NCATS).
